Screens: PubChem, National Center for Advancing Translational Sciences (NCATS)
CtBP-E1A inh – inhibitors of CtBP/E1A interaction; 0.49% of 340,000 active; activity change, % (no concentration beside the values); AlphaScreen GST-E1A/His-CtBP binding, 1536-well; stronger effect = lower value; control for the full effect not named in the record; in the data active means activity change below about -65%; inconclusive means about -30% to -65%; inactive means above about -30%; also: % is scaled to controls: 0 for no effect and ±100 for the full control effect; compound concentration not given in the record
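In 5 uL wells, 23 nL compound meets equimolar GST-E1A and His-CtBP (5X stock 125 nM each) for 2 h, 37 °C. Beads (5X, 50 ug/mL) then 1 h, 37 °C, dark.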
PINK1 expr mod – modulators of PINK1 expression; Potency, µM (highest dose often 76.6 µM), without a hit: top-dose activation (PINK1 increase), usual class: activators; PINK1 immunofluorescence, high-content cytometry, 24 h; 0.2% of 410,000 active; active = well fitted activation curve with a large enough effect; inconclusive = small, poorly fitted or top-dose-only effect; inactive = flat fitted curve, though single readings scatter; cell line not stated here;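 also: potency is read from the fitted curve at half-maximal effect; % of control where 0% means no effect; nearly all actives have a fitted effect of over 65% in size; a mitochondrial uncoupler was the plate control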
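Fluorescence from anti-PINK1 antibody, together with nuclear and cell stains, was scanned on a laser-scanning cytometer. Before staining, stable-line cells were incubated 24 hours with compounds at 5 concentrations; primary antibody 12 h at 10 degrees C.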
D2 agonist – human D2 receptor agonism in beta-arrestin assay; DiscoveRx PathHunter D2 beta-arrestin, luminescence, 90 min; 100% = 57 uM dopamine signal; activation, % (test concentration not listed); 0.084% of 360,000 active; AID 624465; in the data active = activation above about 40%; inconclusive = about 15% to 40%; inactive = below about 15%; also: compound concentration not given in the record; the text of the record calls up to 30% inactive
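Agonist mode: compounds alone added to overnight-plated D2 PathHunter cells for 90 min at 37 C, with 57 uM final dopamine (EC100) defining full response. Beta-arrestin recruitment detected by chemiluminescent reagent, read after 1 h at ambient temperature.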
D2 potentiator – positive allosteric modulators of human D2 dopamine receptor | potentiation, % (no concentration beside the values) | 0.23% of 360,000 active | DiscoveRx D2 beta-arrestin cells, luminescence, 90 min; 100% = 57 uM dopamine signal | P14416; active = potentiation of 50% or more; inconclusive = 30% to 50%; inactive = 30% or less;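 also: compound concentration not given in the record; tested on top of an EC20 dose of dopamine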
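D2 cells co-treated with compound plus 50 nM dopamine (EC20) for 90 min at 37 deg C to detect potentiation. Beta-arrestin recruitment was read as enzyme-fragment luminescence after 1 h at ambient temperature. Full response was set by 57 uM dopamine.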
Six1-Eya2 inh – blocks human Six1 binding to Eya2. Q15475+O00167. AlphaScreen GST-Six1/His-Eya2 binding, biochemical; stronger effect = lower value; control for the full effect not named in the record. activity change, % (test concentration not listed). 0.56% of 360,000 active. AID 651725; in the data active = activity change below about -65%; inconclusive = about -30% to -65%; inactive = above about -30%; also: % is scaled to controls: 0 for no effect and ±100 for the full control effect; compound concentration not given in the record
Target sequence (O00167 whole entry, looked up): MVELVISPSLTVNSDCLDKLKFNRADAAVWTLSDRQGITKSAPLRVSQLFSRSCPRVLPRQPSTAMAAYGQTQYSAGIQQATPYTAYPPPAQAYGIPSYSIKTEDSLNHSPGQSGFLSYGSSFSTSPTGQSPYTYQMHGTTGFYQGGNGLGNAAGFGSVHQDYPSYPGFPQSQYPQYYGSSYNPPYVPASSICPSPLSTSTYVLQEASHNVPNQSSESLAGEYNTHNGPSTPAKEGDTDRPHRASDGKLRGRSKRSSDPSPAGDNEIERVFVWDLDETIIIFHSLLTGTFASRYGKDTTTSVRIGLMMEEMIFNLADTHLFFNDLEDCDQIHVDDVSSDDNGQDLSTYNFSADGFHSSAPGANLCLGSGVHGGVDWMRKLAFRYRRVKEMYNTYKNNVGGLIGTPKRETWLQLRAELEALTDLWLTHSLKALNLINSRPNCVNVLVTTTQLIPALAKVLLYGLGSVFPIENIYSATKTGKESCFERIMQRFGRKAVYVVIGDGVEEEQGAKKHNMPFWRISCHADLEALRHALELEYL
Target sequence (Q15475 whole entry, looked up): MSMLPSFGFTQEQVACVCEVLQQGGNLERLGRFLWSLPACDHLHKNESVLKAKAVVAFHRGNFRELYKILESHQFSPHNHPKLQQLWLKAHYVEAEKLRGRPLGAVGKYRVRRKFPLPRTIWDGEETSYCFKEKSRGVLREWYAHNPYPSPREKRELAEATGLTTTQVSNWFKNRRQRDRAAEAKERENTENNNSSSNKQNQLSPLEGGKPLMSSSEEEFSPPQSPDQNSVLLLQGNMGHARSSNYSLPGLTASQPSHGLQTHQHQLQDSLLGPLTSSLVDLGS
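GST-Six1 + His-Eya2 (5X stock: 250/500 nM); Tris pH 8.0, 300 mM NaCl, 0.05% BSA, 0.02% Tween 20; GSH donor/Ni acceptor beads; 1 h 37 °C dark; AlphaScreen readout.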
Sfp PPTase inh – blocks B. subtilis Sfp PPTase activity; Q9F4F7; Biochemical Sfp PPTase activity, qHTS; Potency, µM, inactives show max response, negative = inhibition, usual class: inhibitors; 3.5% of 310,000 active; active = well fitted inhibition curve with a large enough effect; inconclusive = small, poorly fitted or top-dose-only effect, or another doubt; inactive = no such curve, though single readings can be large or run the other way;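 also: the enzyme is Sfp with the accession as filed and its product quenches rhodamine fluorescence; potency is read from the fitted curve at half-maximal effect; 0% = enzyme reaction without inhibitor and -100% = no enzyme wells; top concentration of the series not given in the record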
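After 15 min at room temperature with compound, 15 nM Sfp received 5 uM rhodamine-CoA plus 12.5 uM BHQ-2-ybbR (50 mM Hepes pH 7.6, 10 mM MgCl2). Rate came from the fluorescence difference over 30 min, ex 525/em 598 nm.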
TRPV1 PAM – potentiators of human vanilloid receptor 1 (TRPV1). Q8NER1. TRPV1-expressing cells, Fluo-8 calcium influx, capsaicin EC20 potentiation; host cell line not named in the record; control for the full effect not named in the record. potentiation, % at 8.33 µM. 0.02% of 320,000 active. AID 540277; active means potentiation above 80%; inconclusive means 30% to 80%; inactive means below 30%; also: 0% is about no effect
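Cells expressing TRPV1 were dye-loaded with Fluo-8 and read kinetically: 10 s baseline, 3 min after compound (agonist portion), then 2 min after EC20 capsaicin (allosteric enhancer portion). Calcium-bound dye fluorescence at 480/520 nm.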
* = called active by the depositor; ? = inconclusive; nt = no result given; [ ] = dose if it differs, or a comment.

SMILES	CtBP-E1A inh	PINK1 expr mod	D2 agonist	D2 potentiator	Six1-Eya2 inh	Sfp PPTase inh	TRPV1 PAM
CCn1c(SCC(=O)NCc2ccco2)nnc1C1CCCC1	-4	-0.7%	-3.5	-10	-2	-6%	2
Cc1ccc(-n2nnnc2SCC(=O)Nc2nc(-c3ccc(F)cc3)cs2)cc1C	3	14%[38.3 µM]	1.3	7	1	10%	-5
CC(=O)[C@H]1CCC2C3CC=C4C[C@@H](O)CC[C@]4(C)C3CC[C@@]21C (some centres undefined)	6	2.4%	7.9	2	6	nt	nt
N/C(=N\O)c1ccncc1	8	0.1%	-0.5	-2	?	17%	nt
O=C(C1CCN(S(=O)(=O)N2CCC3(CC2)OCCO3)CC1)N1CCC(Cc2ccccc2)CC1	-13	nt	-1.1	-3	-3	18%	11
COc1ccc(NC(=O)c2cccc(N3C(=O)NC4CC3(C)Oc3ccccc34)c2)cc1 (centres undefined)	0	-1.8%	1.0	-2	-6	6%	-2
CCC(=O)OC1(C)C(=O)C=C2C=C(c3ccsc3)OC=C2C1=O (centres undefined)	-8	0.7%	-1.6	-4	-3	?	9
CCOc1cc(/C=C/c2ccc3cccc([N+](=O)[O-])c3n2)ccc1O	?	-0.9%	0.3	-11	?	0%	-1
O=C(Nc1ccc(N2CCOCC2)cc1)C1CCCCC1	4	0.4%	0.7	4	-3	14%	-13
CCCCNC(=O)[C@H]1C[C@H]1[C@@H](O)[C@H](CO)NC(=O)[C@H](COCc1ccccc1)NC(=O)OC(C)(C)C	-10	0.1%	-3.6	-6	6	12%	-6
CN(C(=O)COC(=O)CNC(=O)c1ccc(Cl)cc1Cl)c1ccccc1	12	-0.1%	-0.6	-31	-15	20%	-1
COc1cccc(N2CC(C(=O)Nc3nnc(SCCN4CCOCC4)s3)CC2=O)c1 (centres undefined)	-3	1.1%	1.4	-4	4	2%	-2
O=C(OC1CCCCC1=O)c1ccc(S(=O)(=O)Nc2ccccc2)cc1 (centres undefined)	5	2.4%	-6.1	-2	5	-12%	15
O=S1(=O)CCO[C@H]2Cc3ccccc3[C@H]2N1Cc1cccc(Cl)c1	0	0.8%	-4.4	-1	-2	7%	11
Cn1c(-c2sccc2OCc2ccccc2)n[nH]c1=S	-1	0.6%	-0.3	-9	0	13%	-3
Cn1c(=O)n(C)c2cc(NC(=O)CCl)ccc21	7	1.5%	-0.9	-2	-2	2%	4
CCN(C[C@H]1N[C@@](C)(C(=O)OC)[C@H]2C(=O)N(C)C(=O)[C@@H]12)S(=O)(=O)c1ccc(C)cc1	5	-0.5%	-1.7	-3	6	nt	nt
Cc1cc(C(=O)Nc2ccc(F)cc2)c2ccccc2n1	-13	4.8%	-2.7	-23	3	15%	2
Cn1cc(SCC(N)=O)c2ccccc21	0	2.1%	-3.8	-4	2	14%	6
O=C(c1nn2cccnc2c1Cl)N1CCN(c2ccccc2)CC1	4	-0.2%	-6.5	-1	3	12%	-1
COc1cc(C2CC(=O)Oc3cc(OC)c(OC)c(OC)c32)cc(OC)c1OC (centres undefined)	-23	-1.0%	-1.6	nt	3	nt	nt
CCCn1c(SCC(=O)NCCc2ccc(OC)c(OC)c2)nc2c1c(=O)n(C)c(=O)n2C	5	?	-2.8	-6	2	14%	0
O=C(Cc1cccs1)Nc1nncs1	5	3.3%	4.1	6	6	12%	0
CN(CCC1CCCCO1)C(=O)CCc1nnc(Cc2c[nH]c3ccccc23)o1 (centres undefined)	0	3.5%	-3.8	-3	-2	6%	8
Cc1ccnc(SCC(=O)c2ccc(Br)cc2)c1C#N	15	14%	-1.4	-11	18	-29%	6
O=C(CSc1ccccc1)Nc1ccc(N2CCOCC2)c(F)c1	4	0.3%	-2.7	-3	-7	15%	14
CC(C)n1c(=O)c2ccccc2n1Cc1cn(-c2ccccc2)nn1	-1	1.0%	-2.6	-1	1	nt	nt
CCN1C(c2ccc(F)cc2)=CS/C1=C(\C#N)c1nnc2n1-c1ccccc1SC2	-16	-0.1%[38.3 µM]	1.2	-3	-11	-23%	-1
CC1CCCCN1C(=O)Cn1c(=O)n(-c2ccc(F)cc2)c(=O)c2sccc21 (centres undefined)	7	-0.6%	-3.6	-6	3	18%	9
COc1ccc(F)cc1S(=O)(=O)NCCCn1ccnc1	7	1.5%	-0.8	3	6	16%	3
CCOC(=O)c1ccc(NCc2nc3ccccc3n2C)cc1	-10	2.4%	-2.4	-8	2	5%	12
Cc1nc(C)c(-c2csc(Nc3ccc(Cl)cn3)n2)s1	-3	0.7%	-2.8	-22	-6	nt	nt
O=C(COC(=O)c1cnccn1)c1ccc(C2CCCCC2)cc1	-1	5.4%	-1.8	-2	-2	18%	-2
Cc1cccc(-n2c(O)c(/C=N/NC(=O)c3ccccc3Cl)c3ccccc3c2=O)n1	-22	-3.5%	-3.2	-2	-24	13%	-1
CCCC(=O)NC(NC(=S)Nc1c(C)n(C)n(-c2ccccc2)c1=O)C(Cl)(Cl)Cl (centres undefined)	5	2.0%	-1.1	-22	-7	17%	14
COc1ccc(N(C)S(=O)(=O)c2cccc(C(=O)NCC(c3cccs3)N(C)C)c2)cc1 (centres undefined)	3	0.0%	0.6	-37	-5	nt	-17
C=C(C)CN1CCN(S(=O)(=O)c2ccc(C)c(N(C)S(=O)(=O)c3ccc(C)cc3)c2C)CC1	6	-2.2%	-2.6	-15	11	-8%	-1
Cc1ccc(N2C(=O)C3C(c4ccccc4)(C2=O)C3(c2ccccc2)c2ccccc2)cc1 (centres undefined)	0	22%[38.3 µM]	-0.9	-5	-12	12%	13
CC1=C(C(=O)N(C)C)CC(CC(=O)NCCCN(C)C)C(=O)N1Cc1ccc(C(C)(C)C)cc1 (centres undefined)	3	-0.5%	-2.5	2	2	nt	nt
Cn1nc(C(C)(C)C)cc1C(=O)N1CCC(C)(C(=O)NS(=O)(=O)C2CC2)C1 (centres undefined)	6	0.5%	-4.8	-5	2	nt	nt
CC1Cc2ccccc2N1C(=O)COC(=O)c1c2c(nc3ccccc13)CCCCC2 (centres undefined)	-21	-1.7%	0.7	-30	-10	3%	14
COc1ccc(Cl)cc1NC(=O)NCc1cccnc1	-7	-0.7%	-2.2	-24	-1	5%	22
O=C(OCC#CCSc1nnc(-c2ccccc2)o1)c1ccco1	3	1.5%	-3.0	-10	1	15%	-13
CCC1C(=O)C[C@H]2CCN3C(=O)CCCC1C23 (some centres undefined)	6	-0.3%	-1.5	5	5	-7%	nt
CC1CCN(S(=O)(=O)c2cn(CC(=O)Nc3ccc(OC(F)(F)F)cc3)cn2)CC1	-6	-1.9%	1.0	-8	7	-1%	-6

Quoted at random: two compounds from above, in no set order.
SMILES	CtBP-E1A inh	PINK1 expr mod	D2 agonist	D2 potentiator	Six1-Eya2 inh	Sfp PPTase inh	TRPV1 PAM
CCCC(=O)NC(NC(=S)Nc1c(C)n(C)n(-c2ccccc2)c1=O)C(Cl)(Cl)Cl (centres undefined)	5	2.0%	-1.1	-22	-7	17%	14
Cc1nc(C)c(-c2csc(Nc3ccc(Cl)cn3)n2)s1	-3	0.7%	-2.8	-22	-6	nt	nt

Structural class, the entries above containing fluorine (7)
SMILES	CtBP-E1A inh	PINK1 expr mod	D2 agonist	D2 potentiator	Six1-Eya2 inh	Sfp PPTase inh	TRPV1 PAM
Cc1ccc(-n2nnnc2SCC(=O)Nc2nc(-c3ccc(F)cc3)cs2)cc1C	3	14%[38.3 µM]	1.3	7	1	10%	-5
Cc1cc(C(=O)Nc2ccc(F)cc2)c2ccccc2n1	-13	4.8%	-2.7	-23	3	15%	2
O=C(CSc1ccccc1)Nc1ccc(N2CCOCC2)c(F)c1	4	0.3%	-2.7	-3	-7	15%	14
CCN1C(c2ccc(F)cc2)=CS/C1=C(\C#N)c1nnc2n1-c1ccccc1SC2	-16	-0.1%[38.3 µM]	1.2	-3	-11	-23%	-1
CC1CCCCN1C(=O)Cn1c(=O)n(-c2ccc(F)cc2)c(=O)c2sccc21 (centres undefined)	7	-0.6%	-3.6	-6	3	18%	9
COc1ccc(F)cc1S(=O)(=O)NCCCn1ccnc1	7	1.5%	-0.8	3	6	16%	3
CC1CCN(S(=O)(=O)c2cn(CC(=O)Nc3ccc(OC(F)(F)F)cc3)cn2)CC1	-6	-1.9%	1.0	-8	7	-1%	-6

(further entries)
SMILES	CtBP-E1A inh	PINK1 expr mod	D2 agonist	D2 potentiator	Six1-Eya2 inh	Sfp PPTase inh	TRPV1 PAM
Cn1c(N)c(C(=O)COC(=O)C2CC(O)CN2S(=O)(=O)c2ccc(Cl)cc2)c(=O)n(C)c1=O (centres undefined)	-2	-1.1%	1.3	0	-7	22%	14
O=C(NCc1nc2ccccc2[nH]1)c1ccco1	8	0.2%	0.3	-3	-1	12%	0
CCOC(=O)C1CCCN(S(=O)(=O)c2ccc3c4c(cccc24)C(=O)N3CC)C1 (centres undefined)	8	5.5%	3.3	1	2	nt	-2
Cc1ccc(N2CC(C(=O)Nc3ccc(S(=O)(=O)N4CCCC4)cc3)CC2=O)cc1C (centres undefined)	-2	3.1%	1.0	1	8	0%	0
O=[n+]1c2c(n([O-])c3c1CCCC3)CCCCC2	9	3.2%	5.1	-3	7	-6%	18
CN(C(=O)/C=C/c1ccc([N+](=O)[O-])s1)c1ccccc1	0	?	4.8	8	-3	-4%	-26
Cc1nn(-c2ccccc2)c(C)c1/C=N\NS(=O)(=O)c1ccc(Cl)cc1	-1	7.2%	-3.7	-1	-8	8%	6
CCN(CC(=O)Nc1ccc(NC(C)=O)cc1)C(=O)/C=C/c1ccco1	4	-1.0%	-1.1	5	-1	nt	8
CN(C)CCCN(C(=O)c1cccs1)c1nc(-c2ccccc2)cs1	-19	-0.3%[38.3 µM]	-2.6	-16	-15	1%	-9
O=C(N[C@@H]1CCC(=O)N(CC[C@H](Oc2ccccc2)c2ccccc2)CC1)OCc1ccccc1	-5	1.5%	-0.6	-10	-6	-13%	30
COc1cccc2cc(C(=O)Nc3ccccc3C(=O)N3CCOCC3)oc12	-4	0.3%	1.3	2	1	13%	?
Cc1cccc(CCNS(=O)(=O)c2ccc3c(c2)oc(=O)n3C)c1	-6	nt	0.4	-2	2	9%	-17
COc1ccc(S(=O)(=O)N2CCCCCC2)cc1NC(=O)Cc1cccc(C(F)(F)F)c1	-2	0.3%	-1.7	-4	1	nt	nt
